Source: PubChem
WNV NS2B-NS3 inh – WNV NS2B-NS3 proteinase inhibition. 65,000 tested, 0.18% active. WNV NS2B-NS3 protease, fluorogenic substrate Ex360/Em465; stronger effect = lower value. P06935. z-score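 (tested at a level between 10 and 100 µM)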;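 active means z-score at -3 or under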;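 further: score is relative to mean and spread of the compound wells of a plate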
Target sequence (P06935 1371-1501 limits assumed): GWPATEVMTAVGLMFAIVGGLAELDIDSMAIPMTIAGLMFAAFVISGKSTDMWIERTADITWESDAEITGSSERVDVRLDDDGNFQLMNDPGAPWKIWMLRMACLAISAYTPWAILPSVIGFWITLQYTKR
Target sequence (P06935 1502-1679 limits assumed): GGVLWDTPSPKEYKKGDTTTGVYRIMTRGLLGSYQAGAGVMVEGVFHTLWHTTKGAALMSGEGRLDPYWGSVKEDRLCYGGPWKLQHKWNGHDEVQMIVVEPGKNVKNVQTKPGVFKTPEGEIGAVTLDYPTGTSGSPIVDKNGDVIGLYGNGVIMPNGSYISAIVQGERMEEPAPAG
Hsc70 – small molecules displacing fluorescent ligand from Hsc70 – biochemical, fluorescence polarization, primary screen (AID 568). Hsc70 fluorescence polarization, probe displacement; higher % means a stronger effect; strong numbers were not always called active. displacement, % at 20 µM, or IC50 in µM where a hit was titrated. 83,000 tested, under 10 active;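 active means displacement above 50% without optical interference and an IC50 on retest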;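 further: ATPase domain with a fluorescein-tagged ATP probe; 0% = vehicle and 100% = excess ADP; read after one hour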
MT1-MMP reporter – inhibitors of MT1-MMP promoter transcription, cell-based, luciferase reporter, luminescence (AID 618). 87,000 tested, 0.62% active. MT1-MMP promoter luciferase reporter cells, luminescence. calls from a first round at 10 µM; hits with a dose series show EC50 in µM;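 active means over half of the reporter light lost at 10 µM or EC50 under 50 µM; inactive means the rest and hits that failed the dose series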;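 further: actives suppress MT1-MMP promoter-driven transcription so potencies describe inhibitors; HT1080 fibrosarcoma cells; overnight exposure; toxic or luciferase-blocking compounds were not removed from the actives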
Numbers without * were called inactive; i = inactive; nt = not tested or not shown; + = active, no number.

Under each structure – WNV NS2B-NS3 inh | Hsc70 | MT1-MMP reporter
- CC(C)N1CC(C(=O)Nc2ccc(Br)c(Cl)c2)CC1=O (stereo not given)
    -0.32 | -1.0% | i
- COc1ccc(C2C(C(=O)c3cc4cccc(OC)c4o3)=C(O)C(=O)N2CCCN(C)C)cc1OC (stereo not given)
    -1.04 | 2.6% | i
- CC(C)Cn1c(-c2ccccc2)nc(=S)c2c1CCCC2
    nt | 6.4% | i
- O=C(Nc1ccccc1C(=O)N1CCCC1)c1cccc(S(=O)(=O)N2CCCCCC2)c1
    0.23 | -5.0% | i
- O=C(Cn1cc2c(n1)CCCC2)NCC1CCCO1 (stereo not given)
    -0.28 | 0.9% | i
- Cc1ccccc1C1CC(c2ccccc2OC(F)F)Nc2ncnn21 (stereo not given)
    0.62 | -6.6% | i
- O=C(CCS(=O)(=O)c1cccc2nsnc12)NCc1ccccc1
    -0.59 | 6.0% | i
- Cc1c(NC(=O)c2ccc(Br)o2)c(=O)n(-c2ccccc2)n1C
    -0.4 | -1.6% | i
- COc1cc(-c2nc(-c3ccc4c(c3)-c3ccccc3S4(=O)=O)c(-c3ccccc3)[nH]2)cc(OC)c1O
    nt | -2.5% | i
- C=CCOc1cccc(C2C(C(=O)c3ccco3)=C(O)C(=O)N2CCN(CC)CC)c1 (stereo not given)
    -0.9 | -6.6% | i

The results go on.
Under each structure – WNV NS2B-NS3 inh | Hsc70 | MT1-MMP reporter
- Cc1ccc(Cn2cnc3c(nnn3Cc3ccc(Cl)cc3)c2=O)cc1
    0.13 | -13.0% | i
- O=C(CSc1nnc(-c2ccncc2)n1-c1ccc(Cl)cc1)N1CCOCC1
    -0.46 | 3.0% | i
- CCN(CCNC(=O)CN(C)S(=O)(=O)c1cccc2nsnc12)c1ccccc1
    nt | 3.9% | i
- CN(C)c1ccc(N2CN=C3SCC(=O)N3C2)cc1
    nt | 0.6% | i
- CCc1nnc(NC(=O)CSc2nnc(CNc3ccc(F)cc3)n2C2CCCCC2)s1
    0.11 | 1.2% | i
- C=C(C)CC1N(c2cccc(OC)c2)C(=O)[C@@H]2C(C(=O)O)[C@H]3C=C[C@@]12O3 (stereo not given in full)
    -0.33 | 4.4% | i
- Cc1cccc(OCc2nnc(NC(=O)c3cccs3)s2)c1
    nt | -1.2% | i
- Cc1cc(NC(=O)c2nn3cccnc3c2Cl)no1
    nt | 4.5% | i
- COC(=O)N1CCN(c2ccc(Cl)c(Cl)c2)CC1
    0.53 | 5.0% | i
- Cc1nc2ccccc2c2oc(C(=O)NCc3ccccn3)cc12
    -1.4 | -1.6% | i

(list continues)
Under each structure – WNV NS2B-NS3 inh | Hsc70 | MT1-MMP reporter
- Cc1cc(NC(=O)CSc2nc(-c3ccco3)cc(C(F)(F)F)n2)no1
    -0.57 | 6.8% | i
- COC(=O)c1[nH]c2cc(C)ccc2c1NC(=O)CN1CCN(C(=O)c2ccco2)CC1
    0.48 | 0.9% | i
- Cc1c(Cc2ccccc2)c(=O)oc2cc(OCc3nn[nH]n3)ccc12
    0.7 | 0.8% | i
- Cc1ccc(OCCN2CCCCCC2)c(C)c1
    -0.34 | 1.8% | i
- NC(=O)C1CCN(CC(=O)N2c3ccccc3CCc3ccccc32)CC1
    -0.96 | 1.2% | i
- CCOC(=O)c1c(C=O)c(C)n(Cc2ccc(Cl)cc2)c1C
    nt | 3.7% | i
- Cc1nc(-c2c(C(F)(F)F)noc2-c2ccc(O)cc2O)cs1
    nt | 3.6% | i
- CCC(=O)Nc1ccc(N2CCCCC2)cc1
    nt | 3.5% | i
- Cc1cc(C)cc(NS(=O)(=O)c2ccc3c(c2)c(=O)n(C)c(=O)n3C)c1
    nt | 2.4% | i
- CCc1c(C)nc(Nc2nc(C)c3cc(OC)ccc3n2)[nH]c1=O
    0.51 | 2.6% | i

(listing goes on)
Under each structure – WNV NS2B-NS3 inh | Hsc70 | MT1-MMP reporter
- CNC(=O)CN1C(=O)CSc2ncccc21
    1.36 | -2.8% | i
- CCCCCCOc1ccc(C(=O)n2cnc(N)n2)cc1
    1.3 | -7.2% | i
- CC(=O)c1c(C)n(-c2ccc(N(C)C)cc2)c2ccc(OCC(N)=O)cc12
    -0.44 | 2.5% | i
- COc1ccc(OCC(=O)N2CC3(C)CC2CC(C)(C)C3)cc1 (stereo not given)
    -0.36 | 0.2% | i
- c1ccc2c(c1)nc1n2CN(Cc2ccc3c(c2)OCO3)CN1
    -0.81 | -5.6% | i
- CC(C)CCNC(=O)CN(CC1CCCO1)C(=O)CCC(=O)Nc1ccccn1 (stereo not given)
    0.71 | 5.3% | i
- CN(C)C(=O)N1CCCC(C(=O)NCc2ccccc2Cl)C1 (stereo not given)
    -0.46 | -7.0% | i
- CC(=O)NCCc1nc2ccccc2n1Cc1ccccc1
    0.02 | 1.9% | i
- Cc1nnc(NC(=O)CSc2nnc(Cc3cccn3C)n2C)s1
    -0.08 | -3.2% | i
- Cc1ccc(C(=O)/C=C/Nc2cccc(O)c2)cc1
    -1.41 | -7.7% | +

Additional records follow.
Under each structure – WNV NS2B-NS3 inh | Hsc70 | MT1-MMP reporter
- Cc1ccc(N2CCN(CC(O)COC3CCCCC3)CC2)cc1 (stereo not given)
    -0.13 | 6.9% | i
- O=S(=O)(c1ccc(NC2CCCCC2)cc1)N1CCOCC1
    0.00615 | 3.6% | i
- CC(=O)Nc1cccc(NC(=O)C2CCCN2C(=O)Nc2ccc(C)cc2)c1 (stereo not given)
    1.17 | -1.6% | i
- Cc1cc(=O)[nH]c(/N=C(/NC(=O)c2ccccc2)Nc2ccc3c(c2)OCCO3)n1
    0.08 | -3.8% | i
- O=C(Nc1cnn(Cc2ccc(Cl)c(Cl)c2)c1)C12CC3CC(CC(C3)C1)C2
    nt | 3.6% | i
- Oc1ccccc1-c1nnc(COc2ccccc2)o1
    2.82 | -3.4% | i
- Cc1n[nH]c(C)c1S(=O)(=O)N1CCCC(C(=O)Nc2nccs2)C1 (stereo not given)
    -0.39 | 3.4% | i
- CCC(c1nnnn1Cc1ccc2c(c1)OCO2)N1CCN(c2ccc(F)cc2)CC1 (stereo not given)
    -1.18 | -5.2% | i
- Cc1[nH]n(C(C)(C)C)c(=O)c1Sc1ccccc1
    1.78 | -5.4% | i
- Cc1cc(NC(=O)CC2CCCC2)n(-c2nc3ccccc3[nH]2)n1
    0.53 | -1.9% | i

(next part)
Under each structure – WNV NS2B-NS3 inh | Hsc70 | MT1-MMP reporter
- c1ccc(-c2nn3c(C4CCCCC4)nnc3s2)cc1
    0.32 | -0.6% | i
- O=c1c(F)cn(C2CCCO2)c(=O)n1Cc1ccccc1Cl (stereo not given)
    -0.36 | 3.2% | i
- Cc1ccc(-c2nc(CS(=O)CC(=O)NCCN3CCCC3)c(C)o2)cc1 (stereo not given)
    2.16 | -2.9% | i
- CS(=O)(=O)N1CCN(C(=O)Cc2cccs2)CC1
    -0.25 | 7.7% | i
- Cc1cccc(C)c1NC(=O)C(NC=O)c1ccccc1Cl (stereo not given)
    nt | -1.1% | i
- COC(=O)c1cc(COc2ccc3oc(C)c(C(=O)OC)c3c2)c(C)o1
    0.56 | 0.5% | i
- CCc1ccc(-c2nnn(CCC(=O)OC)n2)cc1
    -0.9 | -4.3% | 2.02µM*
- CC(C)CC(NS(=O)(=O)c1ccc2c(c1)oc(=O)n2C)C(=O)NC1CCCc2ccccc21 (stereo not given)
    -2.38 | 6.7% | i
- COc1ccc2[nH]c(=O)c(CN(Cc3cccs3)Cc3nnnn3C(C)(C)C)cc2c1
    0.2 | -0.1% | i
- CN=C(c1ccco1)n1c(=S)nc(-c2ccco2)n(C)c1=S
    -1.67 | -5.1% | i

Next part
Under each structure – WNV NS2B-NS3 inh | Hsc70 | MT1-MMP reporter
- Cc1cc(O)c(C(C)C)cc1NS(=O)(=O)c1ccccc1
    1.23 | -1.1% | i
- Cn1cnnc1SCc1nc(N)nc(Nc2ccccc2)n1
    nt | 4.1% | i
- CCOC(=O)c1ccccc1NC(=O)CSc1nnc(COc2ccccc2)n1CC
    -0.82 | 3.8% | i
- c1ccc(C2CC(c3cccs3)n3nnnc3N2)cc1 (stereo not given)
    -0.04 | -0.7% | i
- COc1ccc(C(=O)c2ccccc2)c2c(O)ccc(C(=O)c3ccccc3)c12
    nt | 0.5% | i
- COCCNS(=O)(=O)c1ccc2c(c1)n(C)c(=O)n2C
    nt | -0.6% | i
- CC(C)(C)C1CCC2(CC1)SCC(=O)N2c1ccccc1 (stereo not given)
    nt | 6.4% | i
- CN(/N=C/c1cccnc1)c1cnn(-c2ccc(F)c(Cl)c2)c(=O)c1Cl
    nt | -16.6% | i
- CS(=O)(=O)N1N=C(c2ccccc2)CC1c1cccs1 (stereo not given)
    nt | 8.4% | i
- c1nc(NCC2(N3CCOCC3)CCCCC2)c2ccsc2n1
    -0.23 | 1.3% | i

Further records follow:
Under each structure – WNV NS2B-NS3 inh | Hsc70 | MT1-MMP reporter
- COC(=O)c1c(C)cc(OC(C)=O)c(C)c1OC(C)=O
    0.52 | 0.5% | i
- CCc1nc(N2CCCC(C)C2)c2oc3ccccc3c2n1 (stereo not given)
    -0.45 | 5.9% | i
- COc1cccc(Oc2nc3ncn(Cc4ccccc4)c3c(=O)n2C)c1
    2.06 | -7.5% | i
- O=C(N1CCCC1)n1c(Cc2ccccc2)nc2ccccc21
    -0.47 | -3.4% | i
- Cc1[nH]n(-c2ccc(Cl)cc2)c(=O)c1/C=N/n1c(C)nc2ccccc2c1=O
    nt | -5.6% | i
- CC(=O)NS(=O)(=O)c1ccc(NC(=O)c2ccccc2F)cc1
    0.1 | -1.6% | i
- N#CCC(=O)Nc1sc2c(c1C(N)=O)CCCC2
    0.25 | -3.2% | i
- O=C(NCc1ccco1)c1ccc(Br)s1
    0.99 | 10.3% | i
- Nn1c(SCC(=O)Nc2ccc(F)cc2)nnc1C1CCCCC1
    -0.52 | -1.2% | i
- O=C(NCc1cccc(Cl)c1)c1ccc2c(c1)OCO2
    -0.06 | 6.0% | i

Remaining list, next part:
Under each structure – WNV NS2B-NS3 inh | Hsc70 | MT1-MMP reporter
- Cc1ccc(S(=O)(=O)N2CCOCC2)cc1C(=O)NCc1cn2ccsc2n1
    -0.35 | -0.5% | i
- Cc1ccc2nc(C(F)OC(F)(F)F)[nH]c2c1 (stereo not given)
    0.11 | -4.6% | i
- CCOc1ccccc1NC(=O)CN(c1nccs1)S(=O)(=O)c1ccc(N)cc1
    -0.38 | -6.0% | i
- CC(NCc1ccco1)C(=O)N1CCc2ccccc2C1 (stereo not given)
    -0.21 | -0.2% | i
- CCn1c(SCC(=O)NCc2ccco2)nc2c(c1=O)SC(C)C2 (stereo not given)
    -0.18 | -1.4% | i
- CCOC(=O)c1sc2nccc(N(C)C)c2c1N=CNOCc1c(F)cccc1Cl
    nt | 1.6% | i
- COc1c(F)c(F)c(C(=O)Nc2ccc3oc(-c4ccncc4)nc3c2)c(F)c1F
    -0.82 | -4.7% | i
- CC(=O)NCCOC(=O)Nc1cccnc1
    -0.16 | -4.6% | i
- Cc1ccc(C(=O)Oc2ccc(C(=O)COC(=O)C3CC(=O)N(Cc4ccco4)C3)cc2)cc1 (stereo not given)
    nt | 1.7% | i
- O=C1CC(Sc2nnc(-c3ccccc3O)o2)C(=O)N1c1ccccc1 (stereo not given)
    -0.38 | -2.1% | i

Looked up above.
CN(C)c1ccc(N2CN=C3SCC(=O)N3C2)cc1 in Hsc70: 0.6%
O=C(CSc1nnc(-c2ccncc2)n1-c1ccc(Cl)cc1)N1CCOCC1 in Hsc70: 3.0%

Carrying on:
Under each structure – WNV NS2B-NS3 inh | Hsc70 | MT1-MMP reporter
- COc1ccc(NC(=O)c2cc(OC)c(OC)cc2OC)c(S(=O)(=O)N2CCOCC2)c1
    1.24 | -1.5% | i
- O=C(Nc1ccc(Cl)cn1)c1cccc(S(=O)(=O)N2CCOCC2)c1
    nt | 2.2% | i
- O=C(CSCc1ccc([N+](=O)[O-])cc1)NN=C1CCCCCC1
    nt | 5.0% | i
- Cc1ccc(C2C(C(=O)c3cccs3)=C(O)C(=O)N2CCN2CCOCC2)o1 (stereo not given)
    1.49 | 1.4% | i
- CCCC(=O)C1=C(O)C(C(=O)OC)C(C)(C)CC1=NC(C)C (stereo not given)
    nt | 2.0% | i
- Cc1ccc(-c2nnn(CCC(=O)N3CCCCC3C)n2)cc1 (stereo not given)
    -0.46 | -3.7% | i
- CCN(CC)S(=O)(=O)c1ccc(-c2nnc(SCC(=O)N3CCOCC3)o2)cc1
    -1.1 | 5.9% | i
- CCc1nc(SCc2cc(Cl)ccc2OC)n[nH]1
    0.06 | -1.1% | i
- Nc1ccc2c(c1)COc1ccccc1O2
    2.11 | -10.0% | i
- COc1ccc(S(=O)(=O)N(CC(=O)O)Cc2ccccc2)cc1OC
    -0.29 | -1.2% | i

Structural class, the entries above containing a COOH group (two)
Under each structure – WNV NS2B-NS3 inh | Hsc70 | MT1-MMP reporter
- C=C(C)CC1N(c2cccc(OC)c2)C(=O)[C@@H]2C(C(=O)O)[C@H]3C=C[C@@]12O3 (stereo not given in full)
    -0.33 | 4.4% | i
- COc1ccc(S(=O)(=O)N(CC(=O)O)Cc2ccccc2)cc1OC
    -0.29 | -1.2% | i

(more compounds)
Under each structure – WNV NS2B-NS3 inh | Hsc70 | MT1-MMP reporter
- COc1cccc2sc(NC(=O)c3ccc(S(=O)(=O)N4CCOCC4)cc3)nc12
    -0.55 | 3.9% | i
- O=C(c1ccco1)N1CCN(C(c2ccccc2Cl)c2nnnn2Cc2cccs2)CC1 (stereo not given)
    0.28 | -2.7% | i
- Cc1nn(-c2ccccc2)c2sc(C(=O)OCC(=O)N3CCCCC3)cc12
    -1.61 | 7.8% | i
- COc1ccc(C(=O)NCC(c2cccnc2)N2CCN(c3ccccc3OC)CC2)cc1OC (stereo not given)
    -0.36 | 2.3% | i
